CDC25B-CDK2 inh: human CDC25B-CDK2/CyclinA binding inhibition | P30305+P24941 | HTRF CDC25B-CDK2/CyclinA binding, anti-His/anti-Flag; active compounds read high | z-score (no concentration beside the values) | hit rate 0.72% among 94,000 | AID 1259370;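 also: score is relative to mean and SD of negative controls; strong numbers were not always called active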
HIV TAR-Tat: HIV-1 TAR-Tat binding disruption. z-score (concentration not given with the values). hit rate 0.6% among 100,000. AID 1259389. HIV-1 TAR RNA, Tat peptide displacement FRET; active compounds read high;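 also: score is relative to mean and SD of negative controls; some compounds called inactive have numbers as strong as hits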
* marks the source's active call; other numbers are inactive results; x = not tested or not shown.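 The calls were made as follows: active = z-score from 3 up in half or more of its runs; inactive = the rest.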

Sequence of screens – CDC25B-CDK2 inh | HIV TAR-Tat
1	CSc1cccc(NC(=O)c2cc3c(=O)n(C)c4ccccc4c3s2)c1
  -0.69 | -0.45
2	COc1ccc(/C(O)=C2\C(=O)C(=O)N(Cc3cccnc3)C2c2ccc(OC)c(OC)c2)cc1 (stereo unspecified)
  -0.3 | 0.77
3	O=C(O)COc1ccc2c3c(c(=O)oc2c1)CCCC3
  -1.9 | x
4	CC1Cc2cc(S(=O)(=O)CCC(=O)Nc3ccc(F)c(Cl)c3)ccc2N1C(=O)C1CC1 (stereo unspecified)
  x | -0.33
5	O=c1c2c(nc(SCCO)n1Cc1ccco1)-c1ccccc1CC21CCCCC1
  -0.79 | 2.2
6	CCOC(=O)c1cc(S(=O)(=O)NCC2CCCO2)cn1C (stereo unspecified)
  -1.9 | 1.6
7	Oc1c(Br)cc(Br)c2cccnc12
  x | 0.94
8	O=C(NCCCN1CCC(N2CCCCC2)CC1)c1noc2c1CCc1sccc1-2
  x | -0.19
9	O=C(NC1CCCCC1)c1cc2c(s1)-c1ccsc1CC2
  -2.4 | -0.02
10	O=C1c2cccc3c(N4CCOCC4)ccc(c23)C(=O)N1CCO
  -4.2 | -8
11	CN(C(=O)C1CCCN1S(=O)(=O)c1cccc2nsnc12)c1ccc(Br)cc1 (stereo unspecified)
  -1.4 | 0.66
12	COc1ccc(-c2nc(COc3ccccc3Cl)nc(SC)c2C#N)cc1
  -0.97 | x
13	CCc1ccc(CN2CCc3nc(Nc4ccc5c(c4)OCO5)ncc3C2)cc1
  x | 1.2
14	COc1ccc2nc3oc(C(=O)NC4CCCc5ccccc54)cc3cc2c1 (stereo unspecified)
  -1.6 | x
15	CCOCCOC(=O)C1=C(C)NC2=C(C(=O)CC(c3cccs3)C2)C1c1ccccc1Cl (stereo unspecified)
  -1.7 | -1.1
16	COc1ccc(OCCN2CC(O)=C(c3nc4ccccc4[nH]3)C2=N)cc1
  -2.3 | 0.77
17	Cc1cc(NC(=O)c2cc(Cl)sc2Cl)no1
  -1.6 | x
18	O=C(Cn1cnc(S(=O)(=O)N2CCCC2)c1)NCc1ccc2c(c1)OCO2
  x | 1.3
19	CCn1c(C)c2c(C)n[nH]c(=O)c2c1C
  -1.1 | 2.8
20	CC1Sc2ccc(S(=O)(=O)N3CCC(C(=O)N4CCCC4)CC3)cc2NC1=O (stereo unspecified)
  x | -1.2

Taken from the results shown for reference:
Sequence of screens – CDC25B-CDK2 inh | HIV TAR-Tat
16	COc1ccc(OCCN2CC(O)=C(c3nc4ccccc4[nH]3)C2=N)cc1
  -2.3 | 0.77
17	Cc1cc(NC(=O)c2cc(Cl)sc2Cl)no1
  -1.6 | x
18	O=C(Cn1cnc(S(=O)(=O)N2CCCC2)c1)NCc1ccc2c(c1)OCO2
  x | 1.3

Another view of part of the listing above:
[13] CCc1ccc(CN2CCc3nc(Nc4ccc5c(c4)OCO5)ncc3C2)cc1
  CDC25B-CDK2 inh = x | HIV TAR-Tat = 1.2

[18] O=C(Cn1cnc(S(=O)(=O)N2CCCC2)c1)NCc1ccc2c(c1)OCO2
  CDC25B-CDK2 inh = x | HIV TAR-Tat = 1.3

[12] COc1ccc(-c2nc(COc3ccccc3Cl)nc(SC)c2C#N)cc1
  CDC25B-CDK2 inh = -0.97 | HIV TAR-Tat = x

[17] Cc1cc(NC(=O)c2cc(Cl)sc2Cl)no1
  CDC25B-CDK2 inh = -1.6 | HIV TAR-Tat = x

More entries
Sequence of screens – CDC25B-CDK2 inh | HIV TAR-Tat
21	Cc1cc(N2CCCC2)n2nc(C)c(-c3ccc(F)cc3)c2n1
  -1.5 | -0.1
22	CCSC1(SCC)N=C(N)C2(C#N)C(c3ccc(F)cc3)C12C#N (stereo unspecified)
  0.02 | x
23	CCOc1ccc2c(C)cc(=O)oc2c1C
  -0.75 | x
24	Cc1ccc(-n2nc3c(c2NC(=O)c2ccc4c(c2)OCO4)CS(=O)(=O)C3)c(C)c1
  x | 1.8
25	Cc1cc(NC(=O)Cn2c(=O)n(CCCC(=O)NC3CCCC3)c(=O)c3cc(Cl)ccc32)n[nH]1
  -0.15 | 0.78
26	O=C(CSCc1cnn(-c2ccccc2)c1-n1cccc1)NCc1ccccn1
  -2.7 | 0.71
27	CC1(C)CC(=O)C2=C(C1)Nc1ccccc1N(C(=O)C1CC1)C2c1cccs1 (stereo unspecified)
  -1.4 | x
28	CN(CC(=O)N1CCc2ccccc21)S(=O)(=O)c1ccc(-c2ccc(=O)[nH]n2)s1
  x | 0.91
29	O=C(c1ccco1)N1CCN(c2ncnc3c2nc2n3CCCCC2)CC1
  x | 1.6
30	CC1Cc2cc(S(=O)(=O)Nc3ccc(Cl)cc3)ccc2N1C(=O)C1CCC1 (stereo unspecified)
  x | 1.1
31	CC(=O)Oc1ccc(C2C(C(=O)OC(C)C)=C(C)NC3=C2C(=O)CC(c2cccs2)C3)cc1 (stereo unspecified)
  -0.69 | 0.24
32	CCCN(CCC)CCNc1ncnc2onc(-c3ccc(C)cc3)c12
  x | 2.4
33	Cc1cccc(CSc2nc(-c3ccccc3)c(C#N)c(=O)[nH]2)c1
  0.64 | 0.83
34	COc1cc(C2C3=C(CC(C)(C)CC3=O)Nc3[nH]c(=O)[nH]c(=O)c32)ccc1OC(C)C (stereo unspecified)
  2 | 1.7
35	C=CCNC(=O)C1CCCN(S(=O)(=O)N2CCN(C(=O)OCC)CC2)C1 (stereo unspecified)
  x | 1
36	O=C(Cn1ncn2nc(-c3ccco3)cc2c1=O)NCCCN1CCOCC1
  -0.78 | -0.46
37	CC1CCN(CCCNC(=O)CCCc2nnc3n(C)c(=O)c4sccc4n23)CC1
  x | -2
38	Cc1cc(-c2ccc(C)c(S(=O)(=O)N3CCC(Cc4ccccc4)CC3)c2)on1
  x | -0.07
39	CC(C)NC(=O)C1CCC(Cn2c(=O)c3sccc3n(CC(N)=O)c2=O)CC1 (stereo unspecified)
  x | 1.1
40	O=C(C1CC1)N1CCc2cc(Br)cc(S(=O)(=O)NC3CCCC3)c21
  -0.27 | x
41	COc1ccc(Cc2nnc(SCc3ccccc3Cl)o2)cc1
  -1.2 | -1.5
42	CC(=O)Nc1ccc(N2C(=O)CC(N3CCN(C)CC3)C2=O)cc1 (stereo unspecified)
  -2.6 | 0.9
43	COc1ccc(S(=O)(=O)n2nc(C)c(S(=O)(=O)N3CCCC(C)C3)c2C)cc1C (stereo unspecified)
  x | 1.4
44	COC(=O)CS(=O)(=O)c1ccc2c(c1)CC(=O)N2
  x | 1.6
45	CC1CC(C)(C)NC(=S)N1CCC(=O)Nc1ccc(F)c(F)c1 (stereo unspecified)
  -0.5 | x
46	O=C(Cn1ncc2c(=O)oc3ccccc3c21)Nc1ccccc1Cl
  -1.8 | 1.9
47	Cc1ccc(-c2c(C(F)(F)F)nn3c(NCCCN4CCOCC4)cc(C)nc23)cc1
  1.3 | 0.29
48	CC(O)/C=C/c1cccc[n+]1C (stereo unspecified)
  -1.7 | x
49	CC1CCN(C(=O)C2CCN(c3nn4c(=O)c5c(nc4s3)CCCC5)CC2)CC1
  -0.92 | -0.59
50	CC1CC(C)CN(C(=O)CC2Oc3ccccc3NC2=O)C1 (stereo unspecified)
  -1.2 | -0.16
51	Cc1cc(N2CCN(C)CC2)n2nc(Cc3ccc(Cl)cc3)nc2n1
  -1.9 | 0.16
52	Cc1nc2sc3ccccc3n2c(=O)c1S(=O)(=O)NCCC1=CCCCC1
  x | 0.36
53	CC1=C(c2cccc(Br)c2)S(=O)(=O)N=C1N1CCN(c2ccccc2)CC1
  -1.3 | 0.48
54	Cc1ccc(-c2nc3nc(C)cc(NCc4ccc(F)cc4)n3n2)cc1
  x | -6.1
55	N#C/C(=C\c1ccc(OCc2nc(-c3ccsc3)no2)cc1)C(=O)c1cccs1
  -1.8 | x
56	O=c1ccc(C2CCN(S(=O)(=O)c3ccc(F)cc3)CC2)nn1-c1ccccc1
  1.6 | 1.2
57	CC1(C)C2CCC1[C@@H]1NS(=O)(=O)C[C@H]21 (stereo partly specified)
  -2.1 | x
58	CCC(C(=O)Nc1ccc(F)cc1)n1c2ccccc2c2nc(=O)cc(C)n21 (stereo unspecified)
  3 | -3.2
59	c1ccc(-c2cc(N3CCOCC3)n3c(n2)nc2ccccc23)cc1
  0.7 | 1.4
60	CCn1c(=O)n(CC)c2cc(N3CCCCC3)c(NC(=O)Nc3ccsc3C(=O)OC)cc21
  0.02 | -0.84
61	CCN1CCN(C(=O)CN2C(=O)CSc3ccc(S(=O)(=O)N(CC)CC)cc32)CC1
  1.1 | 1.7
62	O=C(CN1C(=O)CCSc2ccccc21)N1CCN(c2ncccn2)CC1
  -0.81 | 0.95
63	CN1C(C(=O)N2CCN(Cc3ccc4c(c3)OCO4)CC2)=CC(c2ccco2)=NS1(=O)=O
  -2 | 1.8
64	Cc1ccc(-c2c(N3CCCC3)c(=O)c2=O)cc1C
  x | 2.2
65	O=C(Cn1cc(C(=O)C2CCCCC2)c2ccccc21)NCc1ccc2c(c1)OCO2
  -2 | -0.47
66	Cc1[nH]c(=O)[nH]c(=O)c1S(=O)(=O)Nc1cccc(-c2ccc3ccccc3n2)c1
  x | -0.32
67	CCOC(=O)c1nnn(-c2nonc2N)c1CSc1nccn1C
  -2.9 | x
68	O=C(CCc1nnc2ccc(N3CCCC3)nn12)Nc1cccnc1
  x | -0.26
69	CC(C)NC(=O)C(=O)NCC(c1cccs1)S(=O)(=O)c1cccs1 (stereo unspecified)
  x | 0.89
70	C=CCNC(=O)c1c(O)nc2ccccn2c1=O
  -0.11 | -0.17

Next structures follow:
Sequence of screens – CDC25B-CDK2 inh | HIV TAR-Tat
71	Cc1cccc2cc3c(nc12)N(S(=O)(=O)c1ccc2c(c1)OCO2)CC3
  1.6 | 2.3
72	Cc1ccc(S(=O)(=O)NC(c2ccccc2)c2nnc(-c3ccccc3)o2)cc1C (stereo unspecified)
  x | 2.2
73	CCNC(=O)/C(C#N)=C/c1ccc(Cl)c(Cl)c1
  -1.9 | x
74	O=C(Nc1ccc2c(c1)OCO2)c1cc(CN2CCCC2)on1
  x | 0.97
75	CC(=O)Nc1nnc(SCc2cc(=O)c3ccccc3[nH]2)s1
  x | 0.32
76	Cn1c(=O)c2c(c3ccccc31)OC(=O)CC2c1cccc(Cl)c1 (stereo unspecified)
  1.3 | 1.4
77	Cc1ccc(C2N(c3cccc(Cl)c3)C(=O)C3CCCN32)cc1 (stereo unspecified)
  -1.1 | -1.8
78	CNC(=S)NNC(=O)CSCCOc1ccccc1
  -1.5 | x
79	CC1SCC(=NO)CS1 (stereo unspecified)
  -0.94 | x
80	CCCCCCC1CC(=O)NC(=O)N1 (stereo unspecified)
  -2.9 | x
81	O=C(Cn1c(=O)oc2ccccc21)NC1CCCC1
  x | -0.99
82	CC1(C)CC(=O)C2=C(C1)c1c(ccc3ccccc13)NC2c1ccc(N2CCOCC2)cc1 (stereo unspecified)
  1.6 | -0.78
83	Cc1onc(C(=O)N2CCN(c3ccccc3)CC2)c1[N+](=O)[O-]
  -2 | 3.6
84	O=C(NCc1ccccc1)Nc1cc(=O)c2ccccc2o1
  0.68 | -1.3
85	CCOc1ccc(C(=O)Nc2cc(-c3nc4ccccc4o3)ccc2OC)cc1Cl
  -0.65 | x
86	O=C(NCc1ccco1)c1ccc2cn[nH]c2c1
  x | -2.2
87	CC(=O)OC[C@@]1(O)C[C@@]23CCC4c5ccoc5CC[C@]4(C)C2CC[C@@H]1C3 (stereo partly specified)
  x | 1.9
88	Cc1ccc(Nc2ncnc3c2nc2n3CCCC2)cc1C
  x | 1.4
89	COc1ccc(Cn2cc(C(=O)c3ccc(F)cc3)c(=O)c3cc(F)ccc32)cc1
  -1.7 | -0.3
90	Cc1cc(N2CCOCC2)nc(N2CCOCC2)n1
  -0.02 | 0.61
91	COc1ccc(N2CCN(c3oc(/C=C/c4cccc(OC)c4)nc3C#N)CC2)cc1
  -1.8 | 3.9
92	CCOC(=O)C1CCN(C(=O)NC2COc3ccccc3C2)CC1 (stereo unspecified)
  x | 1
93	CSC(=S)NNC(=O)c1cc(C)[nH]n1
  -2.3 | x
94	CC1Cc2ccccc2N1C(=O)CSc1nnnn1C (stereo unspecified)
  -1.5 | -1.8
95	O=c1c(NCCC2=CCCCC2)nccn1-c1ccc(F)c(F)c1
  x | -3.3
96	CN(C(=O)CC(=O)Nc1ccc2nc3n(c(=O)c2c1)CCCCC3)c1ccccc1F
  0.69 | x
97	CC1Sc2ccc(S(=O)(=O)CCC(=O)NCCC3=CCCCC3)cc2NC1=O (stereo unspecified)
  x | 0.8
98	Cc1ccccc1Nc1nc(C2(C)CC3(CC(C)OC3=O)C(=O)O2)cs1 (stereo unspecified)
  -0.37 | x
99	O=C(CCCN1C(=O)/C(=C\c2cccs2)SC1=S)Nc1cccc(C(=O)O)c1
  -1.8 | x
100	CCOC(=O)c1c(NC(=O)CSc2nnc3ccccn23)sc2c1CCC(C)C2 (stereo unspecified)
  0.21 | x
101	Cc1cc(C)cc(NC(=O)c2cnc3sccn3c2=O)c1
  0.54 | 1.1
102	O=C(NCCc1c[nH]c2ccccc12)Nc1ccc(F)cc1F
  -2.4 | -0.67
103	CCNc1n[nH]c(N)c1-c1nc(-c2ccc(OC)cc2)no1
  -1.2 | -1.2
104	CSc1nc2c(c(=O)[nH]1)C(c1cc(F)ccc1F)CC(=O)N2 (stereo unspecified)
  -1.9 | 2.4
105	COc1ccc(Nc2nc(Cl)nc(NCc3ccco3)n2)cc1
  -0.32 | x
106	CCN1CCN(CCCNC(=O)c2sc3nc4n(c(=O)c3c2C)CCCC4)CC1
  x | 0.63
107	COc1ccc(-c2nc(CSc3nncn4c3cc3oc(C)cc34)c(C)o2)cc1OC
  x | 3
108	O=C(NCc1ccco1)c1nc2ncccn2n1
  -0.9 | 0.98

Bioassay records from PubChem BioAssay.
